High-throughput results: PubChem, National Center for Advancing Translational Sciences (NCATS)
VACV Venus inh: qHTS for Stage-Specific Inhibitors of Vaccinia Orthopoxvirus: Venus Reporter Primary qHTS. AID 720580, 2013. hit rate 0.46% among 330,000. Vaccinia virus Venus reporter expression, fluorescence. Potency, µM (highest dose often 36.5 µM), inactives show top-dose activity change, negative = inhibition, hits mostly inhibitors; active means well fitted inhibition curve with a large enough effect; inconclusive means small, poorly fitted or top-dose-only effect; inactive means no such curve, though single readings can be large or run the other way; tested in A549 cells; also: nearly all actives have a fitted effect of over 30% in size; inactives centre near -10
VACV mCherry inh: qHTS for Stage-Specific Inhibitors of Vaccinia Orthopoxvirus: mCherry Reporter Primary qHTS. Vaccinia virus mCherry reporter infection, fluorescence; about a quarter of the inactives have no number. Potency, µM (titrated, usually from 36.5 µM), inactives show top-dose activity change, negative = inhibition, hits mostly inhibitors. hit rate 0.63% among 310,000. AID 720579, 2013; active = well fitted inhibition curve with a large enough effect; inconclusive = small, poorly fitted or top-dose-only effect; inactive = no such curve, though single readings can be large or run the other way; tested in A549 cells; also: nearly all actives have a fitted effect of over 35% in size; inactives centre near -10
An asterisk follows results filed as active; i = inactive; ? = inconclusive; nt = not tested or not shown; & = joins results of further samples; [ ] = remark or other dose. % is scaled to controls: 0 for no effect and ±100 for the full control effect; potency is read from the fitted curve at half-maximal effect.

Sample of the layout, five compounds:
SMILES	VACV Venus inh	VACV mCherry inh
O=C(C1=C[C@H](c2coc3ccccc3c2=O)C[C@H](OCc2ccc(CO)cc2)O1)N1CCOCC1	-9%	-10%
CC(C)CC(NC(N)=O)C(=O)NCc1ccccc1Cl (stereo not drawn)	-18%	-1%
COc1ccc(S(=O)(=O)N2CCOCC2)cc1NC(=O)COC(=O)C1CCC1	-15%	-10%
COc1ccc(NC(=O)c2ccc(-c3nc(CSc4ccc(C)cc4)c(C)o3)cc2)cc1Cl	-26%	-24%
Nc1ccn([C@@H]2O[C@H](C(=O)N3CCN(c4ccc(Cl)cn4)CC3)[C@@H](O)[C@H]2O)c(=O)n1	1%	13%

Results, previewed entries included:
SMILES	VACV Venus inh	VACV mCherry inh
O=C(C1=C[C@H](c2coc3ccccc3c2=O)C[C@H](OCc2ccc(CO)cc2)O1)N1CCOCC1	-9%	-10%
CC(C)CC(NC(N)=O)C(=O)NCc1ccccc1Cl (stereo not drawn)	-18%	-1%
COc1ccc(S(=O)(=O)N2CCOCC2)cc1NC(=O)COC(=O)C1CCC1	-15%	-10%
COc1ccc(NC(=O)c2ccc(-c3nc(CSc4ccc(C)cc4)c(C)o3)cc2)cc1Cl	-26%	-24%
Nc1ccn([C@@H]2O[C@H](C(=O)N3CCN(c4ccc(Cl)cn4)CC3)[C@@H](O)[C@H]2O)c(=O)n1	1%	13%
Cc1cc(OCC(=O)O/N=C(\N)c2ccccc2)ccc1Cl	-9%	-16%
COC(=O)c1ccc(N2CCOCC2)c(NC(=O)c2cccs2)c1	-4%	i
CCN(CC)CCNC(=O)C(=O)Nc1ccc2c(c1)N(S(=O)(=O)c1cccs1)CCC2	-24%	?
COc1cccc(OCC(=O)Nc2ccncc2)c1	-11%	i
CCC(CC)C(=O)N(C)c1c(C)nc2c(OCc3ccc(F)c(F)c3)cccn12	-17%	11%
Cn1c(SCC(=O)NC2CCCC2)nnc1-c1cccs1	0%	-15%
O=C(Cn1ncc2c1-c1ccccc1OC2)N1CCN(c2ccccn2)CC1	-20%	i
CCCOc1cccc(C(=O)Nc2ccc(Br)cc2F)c1	-21%	-15%
CC(=O)N(c1ccccc1C)c1ccccc1C	-19%	-10%
CCOc1ccc(N(CC(=O)NCc2ccc(OC)cc2)C(=O)CCC(=O)Nc2nccs2)cc1	-11%	-1%
CC1=NN(c2ccc(Br)cc2)C(=O)/C1=C/c1cccs1	-7%	-15%
CCOc1cc(/C=C/C(=O)O)ccc1OCc1ccccc1	-2%	i
COc1ccc(-c2[nH]ncc2C(=O)NCc2cccc(OC)c2)cc1	-7%	-13%
CCOC(=O)c1c(C)[nH]c(CCC(=O)Nc2ccc(OC)c(OC)c2)c1C	-11%	-11%
CCN(CC)C(=O)Cn1c(=O)n(CCc2ccccc2)c(=O)c2ccccc21	1%	6%
CCOC(=O)Cc1c[nH]c(=S)[nH]c1=O	-11%	-14%
O=C(Nc1ccccc1C(=O)OCc1cc(=O)n2c3c(sc2n1)CCCC3)c1ccc(Cl)cc1	-16%	-4%
CCOc1ccccc1N(C(=O)CNC(=O)c1ccco1)C(C(=O)NC1CCCC1)c1ccncc1 (stereo not drawn)	-2%	-8%
C=CCn1c(SCC(=O)Nc2sc3c(c2C#N)CCC3)nnc1C1COc2ccccc2O1 (stereo not drawn)	4%	nt
COc1ccc(CNC(=O)c2cnc(N3CCOCC3)c3ccccc23)cc1	-1%	-10%
CN1c2ccsc2/C(=N/NC(=O)c2c(F)cccc2F)CS1(=O)=O	-13%	i
CCN(Cc1cnn(C)c1)C(=O)c1ccc2nc(Cc3ccccc3F)oc2c1	-16%	i
Cc1cccc(C(=O)NCc2nnc3c4ccccc4c(-c4ccccc4)nn23)c1	0%	-7%
Cc1scc(C(=O)NNC(=S)NCC(C)C)c1C	-20%	-18%
Cc1onc(-c2ccccc2)c1C(=O)OCCOc1ccc([N+](=O)[O-])cc1[N+](=O)[O-]	-27%	?
N#C/C(=C\c1ccc(Sc2nc3ccccc3[nH]2)o1)c1ccccc1	?	nt
CCOC(=O)c1ccc(NC(=O)[C@@H](NC(N)=O)C(C)C)cc1	14%	i
Cc1cccc(-c2noc(-c3ccc(NC4CCCC4)c([N+](=O)[O-])c3)n2)c1	-4%	-12%
CC(CC(=O)NCc1ccco1)S(=O)(=O)c1ccc2c(c1)CCN2C(=O)C1CC1 (stereo not drawn)	-15%[7.34 µM]	i[7.34 µM]
Cc1cc2oc(C(=O)N(Cc3ccc(N(C)C)cc3)CC3CCCO3)c(C)c2cc1C (stereo not drawn)	-5%	-10%
COc1ccc(S(=O)(=O)NCCC(C)C)cc1C	-19%	-4%
CC(=O)c1cccc(-n2nnnc2SCC(=O)Nc2cc(C)on2)c1	-6%	-4%
O=C(COC(=O)c1ccc2ncsc2c1)Nc1ccc(OC(F)(F)F)cc1	-19%	i
CCN(CC(=O)Nc1c(F)cccc1F)C(=O)C1CCCO1 (stereo not drawn)	-19%	i
CCOc1cc(/C=C2\SC(N3CCCC(C)C3)=NC2=O)ccc1O (stereo not drawn)	-15%	11µM*
O=C(CN(Cc1ccc(F)cc1)C(=O)C1CSC(=O)C1)NC1CCCCC1 (stereo not drawn)	-12%	-24%
c1ccc2oc(-c3csc(N4CCOCC4)n3)cc2c1	-19%	-10%
CC(=O)NC1C(=O)N=C(SC(C)C(=O)Nc2cccc(Cl)c2)NC1=O (stereo not drawn)	3%	-7%
CCCCCCN(CCCCCC)C(=O)Cc1c(-c2ccc(F)cc2)[nH]c2ccccc12	-25%&-18%	-6%
CN1CCN(S(=O)(=O)c2cccc(C(=O)NC3CCCC3)c2)CC1	-3%	-8%
CCOC(=O)N1CCN(C(=O)Nc2ccc(Cl)cc2Cl)CC1	-11%	-28%
COC(=O)Cc1coc2cc(OC)ccc12	-3%	i
Cc1ccc(CCNC(=O)c2cc3c(s2)-c2c(C)cccc2OC3)cc1	-8%	-17%
Cc1cc(NC(=O)CCC(=O)N(c2ccccc2)C(C(=O)NC2CCCC2)c2ccc(F)cc2)no1 (stereo not drawn)	-6%	i
O=C(Cn1c(CO)nc2ccccc21)Nc1cc(C(F)(F)F)ccc1N1CCOCC1	-17%	i
C[C@H]1CN([C@@H](C)CO)C(=O)c2cccc(NC(=O)c3ccncc3)c2O[C@H]1CN(C)C(=O)Nc1ccccc1	7%	i
Cn1c(=O)c2c(nc(NCc3ccco3)n2Cc2ccccc2Cl)n(C)c1=O	-20%	nt
Cc1sc2ncnc(NCC(c3ccccc3)N(C)C)c2c1C (stereo not drawn)	15%	-17%
Cc1ccc2nc(SCCCCOc3ccccc3)[nH]c2c1	-8%	-15%
COc1ccccc1CCNC(=O)c1nccnc1C(=O)O	2%	-10%
C[C@H](CO)N1C[C@H](C)[C@@H](CN(C)S(=O)(=O)c2ccccc2)Oc2ccc(NC(=O)C3CC3)cc2C1=O	-2%	-20%
CCc1ccc(NC(=O)N2CCN(C(=O)C3CCCO3)CC2)cc1 (stereo not drawn)	-6%	-12%
c1cncc(C(c2nnnn2C2CCCC2)N2CCN(Cc3ccc4c(c3)OCO4)CC2)c1 (stereo not drawn)	-8%	-8%
CC(NS(=O)(=O)c1ccc(Br)cc1)C(c1cccs1)N1CCN(C)CC1 (stereo not drawn)	-26%	i
CCN(CC)C(=O)CSc1nc2ccccc2n1CC(=O)N1CCN(c2ccccc2OC)CC1	-17%	i

Some of these compounds in order of count of non-hydrogen atoms, rising:
SMILES	VACV Venus inh	VACV mCherry inh
Cc1scc(C(=O)NNC(=S)NCC(C)C)c1C	-20%	-18%
CCOC(=O)c1ccc(NC(=O)[C@@H](NC(N)=O)C(C)C)cc1	14%	i
COC(=O)c1ccc(N2CCOCC2)c(NC(=O)c2cccs2)c1	-4%	i
CC(=O)NC1C(=O)N=C(SC(C)C(=O)Nc2cccc(Cl)c2)NC1=O (stereo not drawn)	3%	-7%
Cc1ccc(CCNC(=O)c2cc3c(s2)-c2c(C)cccc2OC3)cc1	-8%	-17%

The list continues:
SMILES	VACV Venus inh	VACV mCherry inh
Cc1nn(C)c(C)c1NS(=O)(=O)c1cccc(Br)c1	-21%	-6%
O=C(COc1ccc(Cl)cc1Cl)NN1C(=O)C2C3C=CC([C@@H]2C1=O)C31CC1 (stereo partly drawn)	0%	i
CCOC(=O)C1=C(C)NC(C)=C(C(=O)OCC)C1c1cccc(C)n1	-9%	-8%
O=C(NCCN1CCOCC1)c1cnn2c1NC(c1cccs1)CC2C(F)(F)F (stereo not drawn)	-10%	i
Cc1c(Cl)cccc1Nc1nn2c(=O)c3ccc(C(=O)NCCC4=CCCCC4)cc3nc2s1	-11%	-5%
COc1ccc(OC)c(-n2c(=S)[nH]c3cc(C(=O)N(C)Cc4ccccc4)ccc3c2=O)c1	-12%	-14%
Cc1cc(NC(=O)CCSc2ccccc2)ccc1Br	-9%	-15%
Cc1ccc(N2CCN(C(=S)c3ccc(N(C)C)cc3)CC2)cc1	-10%	-14%
COCCNC(=O)C1(C)CCN(C(=O)c2ccc(SC(F)(F)F)cc2)C1 (stereo not drawn)	-4%	2%
O=C(NCCCN1CCN(c2ccccc2)CC1)c1cc2c(s1)-c1ccccc1OC2	-24%	i
O=C(NCCN1CCN(c2ccccc2F)CC1)C1CCCN(S(=O)(=O)c2cnc[nH]2)C1 (stereo not drawn)	0%	5%
COc1ccccc1Nc1nc2ccccc2n1C	-18%	?
O=C(COC(=O)c1c[nH]c(=O)[nH]c1=O)Nc1ccccc1F	-5%	9%
O=C(CN1CCC(NC(=O)Nc2ccccc2)CC1)Nc1ccccc1F	-2%	-9%
C[C@@]12C(=O)Nc3ccc(F)cc3C(=O)N1[C@H]1c3ccccc3OC[C@@H]1[C@@H]2c1ccccc1	?	i
Cn1nnnc1Sc1c(Cl)cccc1[N+](=O)[O-]	-29%	-29%
O=C1CCCC(=NNC(=O)c2cc3ccccc3cc2O)C1	-7%	-19%
COCCOC(=O)C1=C(C)NC(=O)NC1c1cccc(F)c1 (stereo not drawn)	-19%	?
CC1(Cc2ccc(C(F)(F)F)o2)C(=O)Nc2cc(-c3ccc(F)cc3F)ccc21 (stereo not drawn)	-2%	i
COc1ccc(NC(=O)C2CCN(S(=O)(=O)c3cccc4nonc34)CC2)c(OC)c1	-17%	?
Cc1nonc1C(=O)N/N=C/c1ccc(O)cc1	3%	-4%
COC(=O)C(C(=O)OC)C(C[N+](=O)[O-])c1ccc(O)c(OC)c1 (stereo not drawn)	-10%	-4%
COc1ccc(Cn2c(SCC#N)nc3ccc(N4CCOCC4)cc3c2=O)cc1	-12%	-23%
Cc1ccc(N2CCN(S(=O)(=O)c3nnc(NC(=O)c4ccco4)s3)CC2)cc1	-5%	i
O=C(COc1ccc2c3c(c(=O)oc2c1)CCCC3)NC(Cc1ccc(Cl)cc1)C(=O)O (stereo not drawn)	16%	18%
COc1ccc(NC(=O)c2cc(C)no2)cc1OC	2%	i
CN(CCCNC(=O)c1cc2c(=O)n(C)c3ccccc3c2s1)Cc1ccccc1	-22%	-28%
COc1ccc(-c2cc(C(=O)N3CCN(c4ccccc4)CC3)c3ccccc3n2)cc1OC	5%	nt
O=C(Nc1ccc2c(c1)OCCO2)c1ccc(Br)c(S(=O)(=O)N2CCOCC2)c1	-14%	-19%
O=C(Nc1cccc(Br)c1)C1CC(=O)N(C2CCCC2)C1 (stereo not drawn)	8%	-18%
CCCCCCN=C(C)C1=C(O)C(C(=O)OC)C(C)(C)CC1=O (stereo not drawn)	-6%	3%[1.46 µM]
Cc1ccc(NC(=O)c2ccncc2)cc1S(=O)(=O)N(C)C	0%	-6%
O=C(COc1ccc2c(-c3ccccc3)cc(=O)oc2c1)NC1CCS(=O)(=O)C1 (stereo not drawn)	-16%	i
CCN(CC)C(=O)C(=O)N/N=C/c1ccc(Cl)cc1Cl	4%	i
Cc1ccc(O)c(NC(=O)Cc2ccc3ccccc3c2)c1	?	?
CN(C)c1ccc(NC(=O)CN2C(=O)CN=C(c3ccccc3)c3cc(Cl)ccc32)cc1	?	?
COC(=O)C[C@H]1C=C[C@@H](NC(=O)Nc2c(C)noc2C)[C@@H](CO)O1	-4%	-10%
Cc1nn(C)c2c1c(C(F)(F)F)cc(=O)n2CC(=O)Nc1ccc(F)cc1F	-11%	-7%
Cc1c(Cl)cccc1NC(=O)CSC(N)=O	-12%	0%
O=C1c2ccccc2C(O)(c2ncc[nH]2)N1C1CCCCC1 (stereo not drawn)	-7%	nt
C/C(=N\Nc1ccc([N+](=O)[O-])cc1)c1cc2ccccc2o1	9%	-11%
c1ccc2c(c1)nnn2CNc1nccs1	-23%	-7%
CCc1n[nH]c(=S)n1/N=C/c1ccccn1	-5%	-13%
Nc1nc2c(ncn2-c2ccccc2)c(=O)[nH]1	-16%	-15%
COc1ccc(NC(=O)C2CCCN(C(=O)Nc3cccc(OC)c3)C2)cc1 (stereo not drawn)	-2%	-13%
CCCCCCC(=O)N(O)C1CC(=O)N(c2ccc(F)cc2)C1=O (stereo not drawn)	10%	-10%
CN(Cc1ccccc1)C(=O)C1CCN(S(=O)(=O)c2ccc3nc4c(c(C(=O)O)c3c2)CCCC4)CC1	8%	-3%
CCCCN(C(=O)C1=COCCO1)c1c(N)n(Cc2ccccc2)c(=O)[nH]c1=O	-24%	0%
Cn1c(=O)c2c(nc(CN3CCN(C(=O)c4ccco4)CC3)n2Cc2ccccc2)n(C)c1=O	-4%	nt

Rows were taken by chance; about 0.88% have a hit in one of these screens.
